Source: PubChem BioAssay
GIV-Gai inh: blocks GIV peptide binding to rat Galpha-i3. percent of control (FP), % (concentration not given with the values). hit rate 0.42% among 210,000. Galpha-i3/FITC-GIV peptide fluorescence polarization, 90 min; stronger effect = lower value; scaled: aluminum fluoride 0%, vehicle 100%. P08753;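 active means replicate mean at 85% of control or lower, very high polarization wells dropped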;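 further: wells of about 15 µL received 100 nL stock; the first replicate is given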
Target sequence (P08753 whole entry, looked up): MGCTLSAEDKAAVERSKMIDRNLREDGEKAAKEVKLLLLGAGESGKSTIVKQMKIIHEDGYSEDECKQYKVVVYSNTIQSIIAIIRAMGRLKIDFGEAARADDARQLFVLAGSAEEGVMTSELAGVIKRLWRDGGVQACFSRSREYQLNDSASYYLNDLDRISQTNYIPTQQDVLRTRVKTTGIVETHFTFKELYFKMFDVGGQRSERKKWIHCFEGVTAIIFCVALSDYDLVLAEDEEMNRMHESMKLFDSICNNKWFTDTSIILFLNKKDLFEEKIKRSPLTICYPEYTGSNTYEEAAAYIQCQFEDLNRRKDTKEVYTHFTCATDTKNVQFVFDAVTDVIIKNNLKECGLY
Active calls of the source: *.

SMILES	GIV-Gai inh
O=C(O)c1cccc(N2C(=O)/C(=C/c3ccc(Cl)cc3)C=C2c2ccccc2)c1	101
CCC(=O)N(CCC1(c2ccc(OC)cc2)CCOC(C)(C)C1)Cc1ccc(Cl)cc1 (configuration not stated)	111
N#CC1=C(N)Oc2n[nH]c(-c3cccs3)c2C1c1ccccc1OC(=O)N1CCOCC1 (configuration not stated)	104
COc1cccc(CC(=O)Nc2cccc(-c3ccc4ccccc4n3)c2)c1	106
CCN(CCCNC(=O)c1cc2c(C)nn(-c3ccc(F)cc3)c2s1)c1ccccc1	110
CCN1C(=O)N(CC)C2C1N(CC)C(=O)N2CC (configuration not stated)	116
CCC(C)NC(=O)N1CCCC1c1cc(C)on1 (configuration not stated)	99
CCOC(=O)c1ccc(Nc2nc3nonc3nc2NC)cc1	121
CCCOc1ccc(-c2nc(N3CCOCC3)c3ccccc3n2)cc1	107
CC(C)(C)NC(=O)C1CCN(c2ncc(-c3ccccc3)cn2)CC1	107
CCn1nnc2c(NCCC(C)C)ncnc21	108
COc1ccc(C(O)(C(=O)NNc2ccc(Cl)cc2)c2ccc(OC)cc2)cc1	106
COc1ccc(N2CCN(S(=O)(=O)c3cc(-c4cnn5c(C)cc(C)nc45)ccc3C)CC2)cc1	100
Cc1nn(-c2nc3ccccc3[nH]2)c2c1C(c1ccccc1F)CC(=O)N2 (configuration not stated)	101
O=C(O)c1ccc(N2C(=O)C3C4c5ccccc5C(c5ccccc54)C3C2=O)cc1 (configuration not stated)	112

Next section
SMILES	GIV-Gai inh
COCc1cc(C)nc2sc3c(=O)[nH]nnc3c12	104
COc1cc(C2Nc3ccc4ccccc4c3C3=C2C(=O)CC(c2ccccc2)C3)ccc1O (configuration not stated)	106
CC(=O)[C@H]1[C@H](c2cccs2)C(C#N)(C#N)[C@@H]2c3ccccc3C=CN21	114
CCN(CC)CCNC(=O)c1sc2ncnc(N3CCN(c4ccccc4F)CC3)c2c1C	101
Cc1ccc(N2C(=O)C(N3C(=O)c4ccc([N+](=O)[O-])cc4C3=O)C2c2ccc(F)cc2)cc1Cl (configuration not stated)	130
CCOC(=O)N1CCN(C(=O)c2c[nH]c3ccc(S(=O)(=O)N4CCN(c5ccc(F)cc5)CC4)cc3c2=O)CC1	118
CC(C)c1nc(C(=O)N2CCCN(Cc3noc(-c4ccccc4)n3)CC2)cs1	103
Cc1cc(C)c(C2=NON3N(C(=O)c4ccc(Br)cc4)c4ccccc4N23)c(C)c1	108
CCCN(CCC)C(=O)CSc1nc2c(sc(=S)n2-c2ccccc2C)c2nc3ccccc3n12	108
O=c1cc(CSc2nc(NCc3ccccc3)c3ccccc3n2)nc2ccccn12	109
COC(=O)C1=C(C(=O)OC)SC(=C2C(=S)C(C)(C)N(C(=O)c3ccc(-c4ccccc4)cc3)c3ccc(OC)cc32)S1	114
Cn1cnc(SCC(=O)N2c3ccccc3Sc3ccccc32)n1	101
O=C(Nc1ccc(Oc2ccc(Cl)c3ccccc23)c(Cl)c1)c1cc(Cl)cc(Cl)c1O	109
COCCCNC(=O)Cn1ccc2c(SCc3ccc(F)cc3)nccc21	103
O=C(OCCN1C(=O)C2C3c4ccccc4C(c4ccccc43)C2C1=O)c1ccccc1 (configuration not stated)	104

Some of the entries above, set out differently:
GIV-Gai inh	Molecule
114	COC(=O)C1=C(C(=O)OC)SC(=C2C(=S)C(C)(C)N(C(=O)c3ccc(-c4ccccc4)cc3)c3ccc(OC)cc32)S1
101	Cn1cnc(SCC(=O)N2c3ccccc3Sc3ccccc32)n1
109	O=C(Nc1ccc(Oc2ccc(Cl)c3ccccc23)c(Cl)c1)c1cc(Cl)cc(Cl)c1O

Carrying on.
SMILES	GIV-Gai inh
O=C(COC(=O)c1ccccc1N1C(=O)C2C3C=CC(C3)C2C1=O)c1ccc(Cl)cc1 (configuration not stated)	109
C=CCNC(=O)c1ccc2c(c1)S(=O)(=O)N=CN2CCC	102
O=C1/C(=C\c2nc3ccccc3c(=O)n2CCCO)c2ccccc2N1Cc1ccccc1	98
CC1=C(C#Cc2ccccc2)c2ccccc2OC1(c1ccccc1)N1CCCC1 (configuration not stated)	99
CCC1CCCCN1S(=O)(=O)c1cc(-c2nnc(C)o2)cs1 (configuration not stated)	106
CC(=O)c1ccc(NC(=O)C2OC3OC(C)(C)OC3C3OC(C)(C)OC23)cc1 (configuration not stated)	107
O=C(COc1cccc(Cl)c1)NN1C(=O)c2ccccc2NC1c1ccccc1Cl (configuration not stated)	105
CC(=O)OC1CCCN(CCCN2c3ccccc3Sc3ccc(Cl)cc32)C1 (configuration not stated)	106
Cc1ccc(-c2ccc(-n3nc(C)c(S(=O)(=O)NCCN4CCCCC4C)c3C)nn2)cc1C (configuration not stated)	116
Cc1ccc2c(c1)-c1c(sn(-c3ccc(Br)cc3)c1=S)C(C)(C)N2Cc1ccccc1	110
O=C(NCCCN1CCC(Cc2ccccc2)CC1)C1CC(=O)N(C2CCCC2)C1 (configuration not stated)	109
CC(C)c1cc(C2CCCN2C(=O)c2cc(C3CCCCC3)no2)no1 (configuration not stated)	98
O=c1c2[nH]c3ccc(F)cc3c2ncn1Cc1nc(C2CC2)no1	100
Cc1ccc(C(=O)OC2CC(n3cc(C)c(=O)[nH]c3=O)OC2CO)cc1 (configuration not stated)	104
CCOC(=O)C1=C(c2ccccc2)N=C2SCC(=O)N2C1c1ccc(N(C)C)cc1 (configuration not stated)	110

Continued:
SMILES	GIV-Gai inh
Nc1nonc1C(=Nc1ccccc1)NOCc1ccc(Cl)cc1Cl	119
O=C(NCc1cccc(Br)c1)c1nc(N2CCOCC2)c2oc3ccccc3c2n1	105
O=C(CSc1nnc2c3ccccc3nc(-c3ccccc3)n12)Nc1ccccc1	102
O=S(=O)(c1ccc(-c2nnc(C3CCCC3)o2)o1)N1CCN(C2CCCCC2)CC1	106
CCCCC(=O)N1c2ccc(OCC)cc2C(=C2SC(C(=O)OC)=C(C(=O)OC)S2)C(=S)C1(C)C	104
Cc1ccc(N2C(=O)C(N3C(=O)c4ccccc4C3=O)C2c2ccc(N(C)C)cc2)cc1C (configuration not stated)	104
Cc1nc2ncnn2c(NC2CCN(C)CC2)c1C	110
O=C(NCc1ccc2c(c1)OCO2)c1ccc(-c2ccc(F)cc2)nc1	106
CCc1ccccc1NS(=O)(=O)c1c(C)sc(C)c1-c1cc(C(F)(F)F)on1	96
Cc1nc(CCNC(=O)[C@H]2CSCN2S(=O)(=O)c2ccc(Br)cc2)cs1	98
CCOc1ccc(C2=NN3C(C2)c2cccc(OCC)c2OC3c2cccc(F)c2)cc1 (configuration not stated)	102
O=C(Nc1ncn[nH]1)C1CC1	109
Cc1cccc(CSC2=NS(=O)(=O)c3cc(F)ccc3N2)c1	100
CC(=O)N1c2ccccc2N=C(c2ccc(I)cc2)CC1c1ccc(F)cc1 (configuration not stated)	118
CCOc1ccccc1N/C(SCc1ccccc1Cl)=C(/C#N)C(=O)NCc1ccccc1	111

Rewritten with values ahead of the structure: four of the compounds above.
GIV-Gai inh,structure
119,Nc1nonc1C(=Nc1ccccc1)NOCc1ccc(Cl)cc1Cl
102,O=C(CSc1nnc2c3ccccc3nc(-c3ccccc3)n12)Nc1ccccc1
106,O=C(NCc1ccc2c(c1)OCO2)c1ccc(-c2ccc(F)cc2)nc1
106,O=S(=O)(c1ccc(-c2nnc(C3CCCC3)o2)o1)N1CCN(C2CCCCC2)CC1

The list continues:
SMILES	GIV-Gai inh
COc1ccccc1N(CCOC(=O)C1CC(=O)N(c2ccccc2)C1)C1=NS(=O)(=O)c2ccccc21 (configuration not stated)	111
COc1ccccc1N1CCN(c2ncc(S(=O)(=O)c3ccc(C(C)C)cc3)c(N)n2)CC1	98
COc1cccc(-c2nc3sc4c(c3c(=O)n2CC(=O)Nc2ccc(OC)c(OC)c2)CCCC4)c1	112
COC(=O)C1=NNC2C(=O)N(c3ccccc3)C(=O)C12 (configuration not stated)	109
COc1ccccc1NC(=O)CN1C(=O)C2C3c4ccccc4C(c4ccccc43)C2C1=O (configuration not stated)	105
Cc1ncc([N+](=O)[O-])n1S(=O)(=O)c1ccccc1	105
CCCCCCCCOc1ccc(-n2c(-c3ccccc3)cn3c4c(=O)n(C)c(=O)n(C)c4nc23)cc1	112
CCC(=O)N1Cc2c(sc3c2CCCC3)-n2cccc2C1c1ccccc1 (configuration not stated)	105
CCOc1ccc(N2C(=O)/C(=C\c3ccccc3OC)S(=O)(=O)C2c2cccc([N+](=O)[O-])c2)cc1 (configuration not stated)	106
Cc1nc(SCC(=O)Nc2cccc3ccccc23)c(C#N)c(C)c1Cl	104
CN(CCNC(=O)c1ccc(CN2C(=O)C3CCCN3C(=O)c3ccccc32)cc1)Cc1ccccc1 (configuration not stated)	101
Cc1nnc2ccc(NC3CCCC3)nn12	106
Cc1nc(-c2csc(S(=O)(=O)Nc3ccc(Cl)cc3)c2)no1	97
CC(=O)Nc1c(C)nn(-c2ccccc2)c1N1CCC(C(=O)N2CCc3ccccc32)CC1	121
Cc1ccccc1-n1c(N)c(C(=O)Nc2ccc(F)cc2)sc1=S	103

More structures:
SMILES	GIV-Gai inh
CCCCOc1ccc(C2C(N3C(=O)c4c(Cl)c(Cl)c(Cl)c(Cl)c4C3=O)C(=O)N2c2ccc(OC)c(Cl)c2)cc1 (configuration not stated)	109
CCOC(=O)C1CCN(C(=O)CCc2nc(N3CCCCC3)c3c(CC)noc3n2)CC1	97
CC(=O)c1c(CSCc2ccccc2)oc2ccc(O)c(CN(C)C)c12	110
CCC(C)(C)NS(=O)(=O)c1cc(-c2nc(C)cs2)n(CC(=O)N2CCCCC2)c1	105
Cc1cccc(NC2=NC(=S)N(c3cccc(C(F)(F)F)c3)C23CCCCC3)c1	111
COc1cc(CSc2nc3c(cnn3-c3ccc(Cl)cc3)c(=O)[nH]2)cc(OC)c1	96
COc1ccc(C2(C(=O)N3CCCC(c4nc(-c5ccc(NC(C)=O)cc5)no4)C3)CC2)cc1 (configuration not stated)	106
O=C(c1csc(S(=O)(=O)N2CCCCC2)c1)N1CCCC1	96
COc1ccccc1N1CCN(c2nc(C)nc3sc4c(c23)CCCC4)CC1	116
COc1ccc(-c2cc(N3CCN(C(=O)NC(C)(C)C)CC3)ncn2)cc1	96
CCCS(=O)(=O)c1c(S(=O)(=O)CCC)c2c(C)cccn2c1C(=O)N/N=C/c1cc(O)cc(O)c1	104
COc1cc(Cl)c(NS(=O)(=O)c2cc(-c3cc(C(F)(F)F)on3)sc2C)c(OC)c1	103
Cc1nn(C)c(C)c1S(=O)(=O)N1CCOc2ccc(COCc3cccc(F)c3)cc2C1	97
CCCN1CCc2nc(SCc3cc(F)cc(F)c3)[nH]c(=O)c2C1	98
Nc1ccc(Oc2ccc3c(c2)C(=O)N(c2ccccc2)C3=O)cc1	104

Going on with the list:
SMILES	GIV-Gai inh
O=C(Cn1nc2c(SC3CCCCC3)nccn2c1=O)NC1CCCCC1	104
O=C(Nc1ccc(-c2nnc(-c3ccccc3)o2)cc1)Nc1cc(F)ccc1F	110
Cc1ccc(NC(=O)Cn2cnc3sc(C(=O)N4CCN(Cc5ccccc5)CC4)c(C)c3c2=O)cc1Cl	108
O=C1CSC(c2cc3c(cc2[N+](=O)[O-])OCO3)N1c1cccc(C(F)(F)F)c1 (configuration not stated)	107
COc1ccc(N2CCN(C(=O)CSc3nc4ccc(OC)cc4[nH]3)CC2)cc1	120
Cc1cc(Sc2ccc(NC(=O)Nc3ccc(Br)cc3)cc2)n2ncnc2n1	105
O=C(Cn1ccc2c(SCc3ccc(F)cc3)nccc21)NCc1ccc2c(c1)OCO2	98
COc1ccc(S(=O)(=O)N(CC(=O)Nc2ccc3c(c2)OCO3)c2cc(Cl)ccc2OC)cc1OC	97
Fc1ccc(-c2noc3ncnc(Nc4ccc(-c5ccno5)cc4)c23)cc1	105
O=C(COc1cccc2ccccc12)N/N=C/c1ccc(Sc2nnc(-c3ccccc3)n2-c2ccccc2)o1	106
COc1ccccc1NC(=O)c1sc2ncnc(N3CCC(C)CC3)c2c1C	105
CCOC(=O)c1c(-c2ccc(C)cc2)csc1NC(=O)c1cc2ccccc2oc1=O	102
O=C(C1Sc2ccccc2N(CC(=O)N2CCc3ccccc32)C1=O)N1CCCC1 (configuration not stated)	93
O=C(Cn1cccc1-c1nc(-c2ccc(Cl)cc2)cs1)NCc1ccc2c(c1)OCO2	106
CCc1nnc(-c2coc(S(=O)(=O)N3CCN(CC(C)C)CC3)c2)o1	97

Arranged by the number under GIV-Gai inh (largest number first): some entries from above.
SMILES	GIV-Gai inh
O=C(Nc1ccc(-c2nnc(-c3ccccc3)o2)cc1)Nc1cc(F)ccc1F	110
Cc1ccc(NC(=O)Cn2cnc3sc(C(=O)N4CCN(Cc5ccccc5)CC4)c(C)c3c2=O)cc1Cl	108
O=C(Cn1nc2c(SC3CCCCC3)nccn2c1=O)NC1CCCCC1	104

(list continues)
SMILES	GIV-Gai inh
COc1ccc(-c2c3c(=O)c4ccccc4c3nc3c2c(=O)c2ccccc23)cc1OC	106
COc1ccc(-n2nnnc2C2(Nc3ccc(C)cc3)CCCCC2C)cc1 (configuration not stated)	99
CSc1ccc(NC(=O)C2CC(=O)N(c3ccc4c(c3)CCN4C(=O)C3CC3)C2)cc1 (configuration not stated)	99
O=C(CSc1nnc(NC(=O)c2ccc(Cl)c([N+](=O)[O-])c2)s1)Nc1ccccc1F	102
CNc1nc(C(N)=O)c(NC(=O)COc2ccc(F)cc2)s1	105
O=C(Nc1ccc(F)cc1F)c1cc(S(=O)(=O)N2CCCCC2)ccc1Cl	100

These rows are one share of the data (hit frequency here may not be typical).
